Ba CapD inh: inhibitors of Bacillus anthracis CapD enzyme; actives 0.23% (n = 140,000); AID 492967; z-score (test concentration not listed); purified CapD enzyme, fluorescence intensity read-out; stronger effect = lower value; some hits fall short of the stated cut;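 active = z-score under -4 in either of two replicates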;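 also: stock transfer was 100 nL into about 40 µL; score is relative to mean and spread of the plate; one replicate is shown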
AID504770: growth inhibitors of E. coli YBA685 in a screen for V. cholerae RctB (chromosome II replication) inhibitors; z-score (concentration not given with the values); actives 0.27% (n = 130,000); E. coli YBA685 rctB-dependent plasmid, OD600 growth, 3 h; stronger effect = lower value;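 active = z-score under -2 on both plates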;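 also: wells of about 30 µL received 100 nL stock; score is relative to mean and SD of the test wells; the first replicate is given; strong numbers were not always called active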
* = called active by the depositor; x = not tested or not shown; & = joins results of further samples.

Results follow in this order: AID504770 | Ba CapD inh
O=C(c1cc(-c2ccccc2)n[nH]1)N1CCCCC1
→ 0 | 3
Cc1ccc(NCc2nnc(SCC(=O)O)n2-c2cccc(Cl)c2)cc1
→ 2.5 | x
COc1ccccc1CNCC(=O)Nc1cc(C)on1
→ -0.5 | x
CC(=O)Nc1ccc(C(=O)NC(CCCCNC(=O)OC(C)(C)C)C(=O)OC(C)(C)C)cc1 (stereo unspecified)
→ x | 0.63
CCCN1C(=O)c2ccc(C(=O)NC3=NCCS3)cc2C1=O
→ 0.75 | -0.48
O=C(OCc1ccccc1)C1CCN(S(=O)(=O)c2cccs2)CC1
→ 1 | x
C=CCNC(=O)CSc1nc2ccccc2[nH]1
→ 1.1 | x
O=C1CCCC2=C1C(c1ccc(Br)cc1)C1C(=O)c3ccccc3C1=N2 (stereo unspecified)
→ x | 0.97
N#CCCN(Cc1cccs1)S(=O)(=O)c1ccccc1
→ -0.45 | -0.33
COC(=O)c1ccc2c(c1)nc1n2CCCC1
→ -0.8 | x
Nc1ccc(C(O)(C(F)(F)F)C(F)(F)F)cc1
→ -0.65 | 0.26
O=c1ccnc(SCc2ccccc2Cl)[nH]1
→ -0.95&-0.3 | -0.77&0.075
O=C(Cn1cnc(S(=O)(=O)N2CCCC2)c1)NC1CCN(Cc2ccccc2)CC1
→ -0.35 | 0.24
Cc1ccc(N2C(=O)CC(Sc3nc(C4CC4)ccc3C#N)C2=O)cc1 (stereo unspecified)
→ x | -0.24
CC(C)CC(NC(=O)C1CCCCC1)C(=O)Nc1ccccc1F (stereo unspecified)
→ -1.2 | 0.24
O=C(CSc1nnc(-c2cccc(F)c2)o1)N1c2ccccc2Sc2ccccc21
→ 2.5 | x
CC(NC(=O)COc1ccccc1)C(=O)N1CCN(S(=O)(=O)c2cccs2)CC1 (stereo unspecified)
→ -0.2 | x
O=c1oc2ccc(Br)cc2cc1S(=O)(=O)c1ccc(Cl)cc1
→ 1.1 | 1.2
CN(C)c1ccc(C2/C(=C(/O)c3ccc(Cl)cc3)C(=O)C(=O)N2Cc2ccccc2)cc1 (stereo unspecified)
→ -0.35 | -0.38
NC(=O)NC(=O)c1nc2nonc2[nH]c1=O
→ -0.8 | x

Retrieved by compound from the list above (3):
Results follow in this order: AID504770 | Ba CapD inh
O=c1oc2ccc(Br)cc2cc1S(=O)(=O)c1ccc(Cl)cc1
→ 1.1 | 1.2
COc1ccccc1CNCC(=O)Nc1cc(C)on1
→ -0.5 | x
O=C(CSc1nnc(-c2cccc(F)c2)o1)N1c2ccccc2Sc2ccccc21
→ 2.5 | x

The results go on:
Results follow in this order: AID504770 | Ba CapD inh
Cc1noc(N)c1C1(O)C(=O)N(CCC(C)C)c2ccccc21 (stereo unspecified)
→ 1.2 | x
O=C(CC1CCOCC1)Nc1ccc(I)cc1
→ -0.05 | -0.01
CN(/N=C1\CCCc2occ(C(=O)O)c21)c1ncc(Cl)cc1C(F)(F)F
→ x | 0.26
Cc1[nH]nc2c1C1(C(=O)Nc3ccc(Br)cc31)C(C#N)=C(N)O2 (stereo unspecified)
→ x | 0.065
O=c1c2ccccc2nc(COc2ccc(Cl)cc2)n1-c1ccc(Br)cn1
→ x | 0.5
COc1ccc(Br)cc1CSC(=N)N
→ -1.1 | x
Cc1nc(N)sc1N=Nc1ccc(F)cc1
→ -0.3 | x
N#Cc1cnn(-c2ccccc2)c1/N=C/N1CCCC1
→ -0.55 | -0.18
CC(=O)c1ccc2c(c1)Cc1ccccc1-2
→ x | 5
COc1ccc(/C=C/C(=O)OC2CCCCC2CN(C)C)cc1 (stereo unspecified)
→ -0.5 | 0.12
CCOC(=O)c1ccc(N2C(=O)c3ccccc3NC2c2cccc([N+](=O)[O-])c2)cc1 (stereo unspecified)
→ x | 54
O=C(OCc1cnc(Cl)s1)c1ccc(I)cc1
→ x | -0.23
c1ccc(CSc2nccc(-c3cccnc3)n2)cc1
→ -0.7 | 0.7
Cc1ccc(S(=O)(=O)NC(=O)N2CCC(c3nc(-c4cccs4)no3)CC2)cc1
→ x | -0.43
COc1ccc(OCC(O)CNC(=O)c2sccc2Cl)cc1 (stereo unspecified)
→ -0.75 | 0.3
CCOc1ccccc1C1C(C(=O)N2CCOCC2)=C(C)Nc2nc3ccccc3n21 (stereo unspecified)
→ -1.4 | 0.51
CC(=O)N1CCC(N(C(=O)/C=C/c2ccccc2)c2ccc3[nH]c(C)cc3c2)CC1
→ x | -0.58
O=C(Nc1ccc(Cl)cc1)c1cn(-c2ccccc2)c(=O)c2ccccc12
→ x | 0.7
CC(NC(=O)Cn1ncc2ccccc21)c1ccccc1 (stereo unspecified)
→ 0.4 | 0.17
O=C(CS(=O)CC(=O)Nc1ccc2c(c1)OCCO2)Nc1ccc(Cl)cc1 (stereo unspecified)
→ 1.8 | x

Results follow in this order: AID504770 | Ba CapD inh
O=C1/C(=C/c2cccc3ccccc23)CC/C1=C\c1cccc2ccccc12
→ x | -0.72
Cc1ccc(NC(=O)CC(=O)Nc2ccc(C)cc2)cc1
→ -0.5 | 0.22
CCCCCCCCNC(=O)c1c[nH]c2ccc(S(=O)(=O)N(C)c3ccccc3OCC)cc2c1=O
→ x | 0.015
CCCCn1c(=S)[nH]c2sc3c(c2c1=O)CCCC3
→ -0.15 | -0.075
O=C(O)c1ccc(Br)s1
→ x | 0.46
COc1ccc(/C=C2\SC(=O)N(c3ccc(C)cc3)C2=O)cc1
→ 1.3 | 0.57
Cc1cc(C(=O)NNc2c(Cl)cccc2Cl)no1
→ 0.1 | -0.15
COc1ccccc1CNCc1ccccc1OC
→ -1.8 | -0.56
Cc1[nH]c2ccc(CNC(=O)Nc3ccc(F)cc3F)cc2c1C
→ -0.15 | -0.55
O=C1CCC(C(=O)Nc2ccccc2N2CCOCC2)=NN1
→ -0.65 | -1.9
Cc1cc2c(c(=O)o1)C1(C(=O)Nc3ccccc31)C(C(=O)OCc1ccccc1)=C(N)O2 (stereo unspecified)
→ x | -0.9
O=C1Nc2c(ccc(Cl)c2Cl)C(=O)C1(F)c1ccccc1 (stereo unspecified)
→ -0.1 | -0.54
O=C(CSc1nc2ccc(Nc3nc(N4CCOCC4)nc(N4CCOCC4)n3)cc2s1)NC1CC1
→ x | 0.26
CS(=O)(=O)N(CC(=O)NCC1CCCO1)Cc1ccc(Cl)c(Cl)c1 (stereo unspecified)
→ 1.9 | x
Cc1ccc(C(=N)N)cc1F
→ -0.85 | 0.49
O=C(CSc1nnc(-c2cccs2)o1)c1ccc[nH]1
→ 1.3 | x
CCN(c1cccc(C)c1)S(=O)(=O)c1ccc2[nH]cc(C(=O)NCCc3ccc(OC)c(OC)c3)c(=O)c2c1
→ x | -0.15
O=C(NCc1ccccc1Cl)C1(c2ccccc2)CCCC1
→ -0.4 | 0.35
Cc1oc2cc3oc(=O)ccc3cc2c1C
→ 1 | 5.7
c1ccc(CNc2ccccn2)cc1
→ 0.2 | 3.5

Results follow in this order: AID504770 | Ba CapD inh
O=S(=O)(NCCOc1ccccc1)c1ccc2ccccc2c1
→ 0.1 | 0.38
CC(C)(C)NC(=O)N1CCN(c2ncccc2C(F)(F)F)CC1
→ -0.9 | 0.02
CN(C)c1nc2ccc(OCCN3CCOCC3)cc2s1
→ -0.7 | -0.1
O=C(CCCc1ccccc1)N1CCN(c2ccccn2)CC1
→ 1.1 | x
CC(C)(C)S(=O)(=O)Cc1nc(-c2ccc(C#N)cc2)cs1
→ -0.4 | 1.9
Cc1ccc(NC(=O)N2CCC(O)C2)cc1 (stereo unspecified)
→ -1.1 | 0.64
c1ccc2nc(-c3cn[nH]c3)ccc2c1
→ x | 51
Cc1ccccc1NC(=O)Cn1nnc(-c2ccc(CN3CCC(C)CC3)cc2)n1
→ -0.3 | x
CC(C)N(C(=O)CSc1nnc(NC(=O)c2ccco2)s1)C(C)C
→ 0.8 | x
Cc1cccc(N(C)Cc2nnc(-c3cccc(Br)c3)o2)c1
→ -0.6 | -0.09
O=C(OCc1ccccc1)Oc1cncc(C(=O)ON2C(=O)CCC2=O)c1
→ -0.15 | 2.1
COC(=O)c1ccc(COc2c(-c3ccco3)oc3ccccc3c2=O)cc1
→ 0.3 | 2.3
COc1ccc(CCNC(=O)CSc2nc3n[nH]c(C)c3c(=N)n2-c2ccc(Br)cc2)cc1OC
→ x | -1.7
COc1ccc(OC)c(NC(=O)CSc2nc3ccccc3c(=O)n2CCC(=O)N2CCN(c3ccccc3)CC2)c1
→ x | -0.14
Cc1ccc(COn2c(-c3cccc(Cl)c3)nc3ccc([N+](=O)[O-])cc32)cc1
→ x | 0.62
O=C(c1ccc(F)c(F)c1)N1CCc2c([nH]c3ccccc23)C1c1ccc([N+](=O)[O-])cc1 (stereo unspecified)
→ x | 0.08
O=C1C=CC(=O)C(c2ccc(C(=O)O)cc2)=C1
→ 0.2 | -8*
Cc1nc2c(ncn2-c2ccccc2)c(=O)n1NC(=O)CN1CCN(C)CC1
→ -0.3 | -1.1
COC(=O)C1=C(C(=O)OC)SC(=C2C(=S)C(C)(C)N(C(=O)c3ccccc3Cl)c3ccccc32)S1
→ x | -0.24
CC(NS(=O)(=O)c1cc(Cl)ccc1Cl)C(=O)Nc1ccc2ccccc2c1 (stereo unspecified)
→ x | -0.21

Results follow in this order: AID504770 | Ba CapD inh
Cc1cnc(C(=O)Nc2nn[nH]n2)cn1
→ 2.6 | -0.54
N#CCCN(C(=O)c1sc2ccccc2c1Cl)C1CCCCC1
→ -0.6 | -0.7
O=C(CCS(=O)(=O)c1cc2c3c(c1)CCN3C(=O)CC2)Nc1ccccc1
→ 0.45 | -0.02
O=C(O)C1CCCN(c2ccccn2)C1 (stereo unspecified)
→ -0.35 | x
N#Cc1cnc(SCC(=O)N(C2=CCCCC2)C2CC2)nc1N
→ 2.2 | x
COc1ccc(S(=O)(=O)NC(C(N)=O)C(C)OCc2ccccc2)cc1 (stereo unspecified)
→ x | 0.2
O=S(=O)(c1cccc2nonc12)N1CCC(Cc2ccccc2)CC1
→ x | -0.4
Cn1c(=O)cc(OCC(=O)N2CCC3(CC2)OCCO3)c2ccccc21
→ -1.3 | 0.15
c1ccc(CCN2CCc3nc4ccncc4cc3C2)cc1
→ x | 5.8
CC(C)(C)SCC(=O)Nc1nc(-c2cccs2)c(-c2cccs2)s1
→ 0.85 | x
O=C1C(=O)N(CCCN2CCOCC2)C(c2ccc(Cl)cc2)/C1=C(\O)c1ccc(F)cc1 (stereo unspecified)
→ x | -0.68
C1CCc2nnc(C3CC3)n2CC1
→ 0.75 | -0.32
O=C(C1Cc2ccccc2C1)N1CCOCC1
→ -0.35 | 0.27
CC(C)NC(=O)CN1C(=O)c2ccccc2S1(=O)=O
→ -0.3 | 0.25
c1ccc(C(Sc2ccccn2)c2ccccc2)cc1
→ -0.8 | 2.8
CNC(=O)NC(=O)CN1CC(=O)Nc2ccccc21
→ -0.4 | x
Cc1ccc(CNC(=O)C2CC(=O)OC23CCCC3)c(C)c1 (stereo unspecified)
→ 0.55 | x
COc1ccc2[nH]c(=O)c(CN(Cc3ccco3)C(=S)NC3CCCCC3)cc2c1
→ 0.4 | x
CCN(CC(=O)NC1CCS(=O)(=O)C1)C(=O)C1c2ccccc2Oc2ccccc21 (stereo unspecified)
→ 0.2 | x
CS(=O)(=O)c1ccc(CN(C2CCN(Cc3ccccc3)CC2)S(=O)(=O)c2ccccc2)cc1
→ x | -0.65

Part of the list above, tab-delimited.
Structure	AID504770	Ba CapD inh
c1ccc(CCN2CCc3nc4ccncc4cc3C2)cc1	x	5.8
CC(C)(C)SCC(=O)Nc1nc(-c2cccs2)c(-c2cccs2)s1	0.85	x
O=C1C(=O)N(CCCN2CCOCC2)C(c2ccc(Cl)cc2)/C1=C(\O)c1ccc(F)cc1 (stereo unspecified)	x	-0.68
COc1ccc(S(=O)(=O)NC(C(N)=O)C(C)OCc2ccccc2)cc1 (stereo unspecified)	x	0.2
CNC(=O)NC(=O)CN1CC(=O)Nc2ccccc21	-0.4	x

(more compounds)
Results follow in this order: AID504770 | Ba CapD inh
COc1cc2c(cc1OC)C(CC(=O)Nc1ccccc1)C(=O)N(C(C)=O)N=C2C (stereo unspecified)
→ 1.6 | -0.12
CN(CCOc1ccccc1)C(=O)c1ccc2c(c1)OCO2
→ -0.5 | x
Cc1ccc2[nH]c3c(N(C)C)ncnc3c2c1
→ -1.6 | -0.39
CC(C)(C)OC(=O)N/N=C\c1cc2c(cc1Br)OCO2
→ 1 | -0.35
CCc1ccccc1N1CCN(C(=O)c2ccc(Cl)cc2)CC1
→ -0.3 | 0.27
OC(CN1CCCCC1)Cn1ccc2ccccc21 (stereo unspecified)
→ 0.4 | 1.1
C/C(=N/N1CCc2ccccc21)C(=O)NC1CCSC1=O (stereo unspecified)
→ x | -1.4
CSC1=NCC(=O)N1Cc1cccc(Cl)c1
→ 1.2 | 0.4
Cc1c(OCc2ccc(Cl)c(Cl)c2)ccc(-c2ccn[nH]2)c1O
→ x | -0.51
CN(C)C(=S)Nc1cc(C(F)(F)F)cc(C(F)(F)F)c1
→ 1.6 | 0.47
CCOc1ccc(CCNC(=O)C2CCCN(S(=O)(=O)N3CCCCC3)C2)cc1OCC (stereo unspecified)
→ 0.3 | -0.42
CCC(C)(C(=O)NC1CCCC1)N(C(C)=O)c1ccc(C)cc1 (stereo unspecified)
→ x | 0.41
COc1cccc(C2=NN(C(=O)c3cccc(Br)c3)C(O)(C(F)(F)F)C2)c1 (stereo unspecified)
→ x | -0.055
COc1ccc2oc(=O)c(C(=O)NCCCn3ccnc3)cc2c1
→ -0.3 | x
CN(C)c1ccc(C(=O)Nc2nc3ccc(Cl)cc3s2)cc1
→ 2.8 | 6.5
CC(C)n1nccc1NC(=O)c1cc2c(s1)CCCCC2
→ -1.6 | x
CC(=O)Nc1ccc(S(=O)(=O)N[C@@H](C)C(=O)NC2CCCc3ccccc32)cc1 (stereo partly specified)
→ -0.4 | x
CCCn1cnc2sc(C(=O)N3CCN(C(=O)OCC)CC3)c(C)c2c1=O
→ x | -0.63
NC(=O)C(Cc1c[nH]c2ccccc12)NC(=O)OCc1ccc(C(F)(F)F)c(F)c1 (stereo unspecified)
→ x | -0.71

Screening results as filed in PubChem BioAssay.
